Screens (PubChem)
eIF4H inh – inhibitors of RNA binding by human eIF4H; Q15056; eIF4H fluorescence polarization binding assay; inhibition, % at 35 µM; 0.94% of 290,000 active;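 active = 50% or more with normal probe brightness, or confirmed in later tests; about a fifth of its hits are not listed in these tables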;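 also: calls also rest on retests at 20 µM and on dose response follow-up; 0% = protein and probe with vehicle and 100% = probe without protein; strong numbers were not always called active; many hits fall short of the cut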
CSC inhib – cancer stem cell inhibition. cancer stem cell-like cells viability, luminescence. inhibition, % at 7.5 µM. 1.1% of 300,000 active;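 active = mean at 75% or more and at least half the replicates too; tested in HMLE shEcad cells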;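 also: 0% = median of negative and 100% = median of positive control wells; the first replicate is given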
MT1-MMP act inh – MT1-MMP (human) activation inhibition. HT1080 RFP-PRO-GFP cells, GFP/RFP ratio fluorescence, overnight; percent of plate control window, DMSO zero. GFP/RFP ratio change, % at 20 µM. 0.061% of 360,000 active;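 active = GFP/RFP ratio change of at least 30% with cell ATP level not reduced by more than half and red fluorescence within 50% of control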; also: strong numbers were not always called active
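Test system: HT1080 RFP-PRO-GFP cells; Benchmarks: DMSO and RFP-L50D-GFP cell wells; Timing: cells overnight before dosing, compound overnight, 37 °C, 5% CO2; Compound: one 20 µM compound dose with 1% DMSO; Read-out: GFP/RFP fluorescence ratio.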
Rce1 inhib – blocks yeast Ras-converting enzyme; yeast membranes, quenched prenylated peptide cleavage fluorescence; calls only; 0.27% of 290,000 active;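 active = fall in fluorescence gain of 50% or more versus controls, with final raw signal at or below 3038400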;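 also: plate controls were neutral control wells for no effect and wells lacking membranes for full effect; tested at 10 µM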
PABP polyA inh – blocks human PABP binding to poly(A) RNA. fluorescence polarization. inhibition, % at 35 µM. 1% of 290,000 active. AID 2014;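 active = 50% or more with normal probe brightness, or confirmed in later tests; about a fifth of its hits are not listed in these tables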;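 also: calls also rest on retests at 20 µM and on dose response follow-up; controls were probe without protein and protein plus probe with vehicle; some compounds called inactive have numbers as strong as hits; many hits fall short of the cut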
Target sequence (P11940 whole entry, looked up): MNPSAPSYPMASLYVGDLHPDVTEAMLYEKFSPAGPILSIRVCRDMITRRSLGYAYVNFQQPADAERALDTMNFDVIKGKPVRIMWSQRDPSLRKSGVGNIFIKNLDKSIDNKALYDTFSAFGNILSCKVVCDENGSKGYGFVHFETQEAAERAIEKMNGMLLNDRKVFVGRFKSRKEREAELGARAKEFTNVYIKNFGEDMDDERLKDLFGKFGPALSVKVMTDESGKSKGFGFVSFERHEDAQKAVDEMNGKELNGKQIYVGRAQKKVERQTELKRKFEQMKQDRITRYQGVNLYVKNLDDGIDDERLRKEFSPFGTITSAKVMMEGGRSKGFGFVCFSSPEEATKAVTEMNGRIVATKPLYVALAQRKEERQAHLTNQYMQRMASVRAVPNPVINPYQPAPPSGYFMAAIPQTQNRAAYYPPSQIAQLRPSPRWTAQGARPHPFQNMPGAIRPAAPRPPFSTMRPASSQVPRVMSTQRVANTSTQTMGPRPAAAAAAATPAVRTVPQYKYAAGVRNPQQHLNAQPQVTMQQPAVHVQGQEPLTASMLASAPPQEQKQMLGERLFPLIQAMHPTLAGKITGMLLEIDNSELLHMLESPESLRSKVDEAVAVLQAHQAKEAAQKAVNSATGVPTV
Yeast UUG start – yeast start codon fidelity modulation. S. cerevisiae UUG-firefly luciferase reporter, luminescence/redox ratio. activity score, % at 18.7 µM. 0.13% of 350,000 active;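 active = replicate mean at a twofold rise or more, about +100% in these data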;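 also: firefly luciferase made from a UUG start codon reports start codon fidelity; reporter light over untreated wells divided by growth signal over untreated wells; some hits fall short of that in this replicate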
Env fusion inh – HIV envelope-mediated fusion inhibition; HeLa-JRFL Env/CEM21 cell fusion, luciferase; inhibition, % at 12.3 µM; 1.1% of 360,000 active;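 active = mean replicate inhibition score of at least 50 and every replicate individually at or above 50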;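 also: 0% = plate neutral controls and 100% = maraviroc near 300 nM; one replicate is shown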
MT1-MMP act inh RFP – second read-out of MT1-MMP act inh, no call of its own (marks repeat the call); RFP signal change, %; measured here: RFP expression control read;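 0 = vehicle wells; hits needed this value within 50% of zero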
Active calls of the source: *; i = inactive; · = not tested or not shown; & = joins results of further samples; [ ] = another dose, or the depositor's remark.

Sequence of screens: eIF4H inh	CSC inhib	MT1-MMP act inh	MT1-MMP act inh RFP	Rce1 inhib	PABP polyA inh	Yeast UUG start	Env fusion inh
COc1ccc(CNC(=O)CCSCc2ccccc2Cl)c(OC)c1
    0	-16	2	4	i	-2	·	-6
O=C(c1ccccc1)N(Cc1ccc(F)cc1)C1CCS(=O)(=O)C1 (stereo unspecified)
    6	12	0	-3	i	0	-20	-34
CCCc1cc(=O)n2[nH]c(-c3ccc(C)cc3)cc2n1
    -12	-2	1	-3	i	10	-5	·
CCOCCn1c(CN2CCN(c3ccc(F)cc3)CC2)nc2c1c(=O)n(C)c(=O)n2C
    -8	-1	0	-4	i	4	-12	-1
CCN(CC(=O)NCc1ccc(F)cc1)Cc1nc2ccccc2c(=O)[nH]1
    2	-8	-1	8	i	4	-14	-59
O=C(COc1ccccc1)NC(=S)Nc1cccc(NC(=O)c2ccccc2Cl)c1
    -5	12	1	0	i	-4	-14	·
CCCCC(=O)N(C)c1c(C)nc2ccc(C(=O)N3CCNC(=O)C3)cn12
    ·	·	3	9	·	·	4	6
O=C1CNC(=O)/C1=C\c1ccc(O)cc1
    8	-10	2	0	i	0	·	-12
Cc1cc(C)c(NC(=O)CSc2ccc(-c3cccnc3)nn2)c(C)c1
    -10	-2	5	1	i	3	·	6
CCC(=O)c1cc(F)ccc1OCC(=O)Nc1ccc2c(c1)OCCO2
    ·	-11	2	0	·	·	-24	·
COc1ccc(-n2cc(CN[C@H]3CCCCNC3=O)c(-c3cccc(F)c3)n2)cc1
    6	-11	1	-2	i	3	-4	5
O=C(CCCOc1ccccc1)Nc1ccc(S(=O)(=O)Nc2ccccn2)cc1
    -7	-17	-7	3	i	-8	·	·
CCCC(c1nnnn1Cc1ccc(OC)cc1)N1CCC(C(N)=O)CC1 (stereo unspecified)
    -4	-3	4	1	i	30	-6	·
CCn1cc(/C=N\NC(=O)c2cc(-c3ccccc3OC)nc3ccccc23)c(C)n1
    -4	2	-3	-2	i	-7	·	-13
O=C1C(NS(=O)(=O)c2cccs2)=C(N2CCN(Cc3ccccc3)CC2)C(=O)c2ccccc21
    14	13	4	-2	i	14	·	1
COc1ccccc1NS(=O)(=O)c1ccc(C)c(NC(=O)c2ccc(S(=O)(=O)N3CCCCCC3)cc2)c1
    13	-4	-5	-14	i	1	-3	·
S=c1[nH]nc(-c2cc(-c3ccccc3)n[nH]2)n1/N=C/C=C/c1ccco1
    102*	5	-6	2	i	62*	-9	-41
Cc1ccc(S(=O)(=O)N(C)C[C@H]2Oc3cc(C#CC4CCCC4)ccc3S(=O)(=O)N([C@H](C)CO)C[C@H]2C)cc1
    ·	·	-11	-9	·	·	37&-22&-26	7
OC[C@H]1O[C@@H](c2nc(-c3ccc4[nH]ccc4c3)no2)[C@H](O)[C@@H](O)[C@H]1O
    ·	·	1	1	·	·	-6	-27
CCOC(=O)C(=Nc1ccccc1)NO
    9	-8	1	7	i	1	-5	-19
COc1ccc(-c2nnc3cccc(Cl)n23)c(OC)c1
    -9	-6	-2	0	i	-1	-14	6
Fc1ccccc1NC(=S)NCCc1ccc(Cl)cc1
    -9	-4	-6	0	i	5	-16	·
Cc1ccc(C(=O)OCN2C(=O)c3ccccc3C2=O)c(O)c1
    -3	-2	-2	1	i	-9	-18	11
NCCOc1ccccc1-c1ccccc1
    -1	-5	0	3	i	4	4	·
OC1CN=C2CCCc3c2n(c2ccc(Cl)cc32)C1 (stereo unspecified)
    3	-11	-36	-3	i	-7	-14	-301
COc1ccc(CCn2c(-c3cccc([N+](=O)[O-])c3)nc3nc4ccccc4nc32)cc1OC
    0	-26	-1	-2	i	-15	3	·
O=[N+]([O-])c1ccc(Cl)cc1CN1CCCCCC1
    8	-9	-2	1	·	9	-15	11
COc1ccc(S(=O)(=O)NNC(=O)Nc2ccccc2OC)c(OC)c1
    -7	-4	0	3	i	4	-13	·
CCOC(=O)N1CCN(S(=O)(=O)c2ccc(F)c(C(=O)Nc3ccc(C)c(Cl)c3)c2)CC1
    -3	14	-5	-9	i	-10	-11	-30
C[C@H](O)CC1=C[C@H](O)[C@@H](C)OC1=O
    2	-11	-1	5	i	6	0	·
Cc1ccc(/C=C/C2=NN(C)C(=O)CC2)cc1
    -4	6	-1	4	i	-14	-14	-114
COc1ccc(Nc2nc(N3CCN(C)CC3)nc3ccccc23)c(OC)c1
    -9	4	-9	-4	·	-3	·	-15
Cc1ccc(CNCC2CCCO2)o1 (stereo unspecified)
    -2	-5	2	11	i	0	·	-7
COc1ccc(NC(=S)NC(NC(=O)CCl)C(Cl)(Cl)Cl)c([N+](=O)[O-])c1 (stereo unspecified)
    -14	1	-4	-6	i	-9	-11	·
CCOC(=O)c1ccc(NC(=S)N2CCSC2c2ccc(Br)cc2)cc1 (stereo unspecified)
    -1	-11	5	1	i	-8	·	5
COc1ccc(-c2cn3c(C)c(C(=O)NC(C)C)sc3n2)cc1
    0	2	11	-1	i	7	-5	-42
CN(Cc1ccccc1)C(=O)NC1CCCCC1
    2	12	0	1	i	17	-13	-21
CC1(C(=O)NCc2ccccc2)CCC(=O)N1C1CC1 (stereo unspecified)
    ·	·	6	7	·	·	6	3
CC(C)(C)OC(=O)NCCCCCc1nnc(SCc2ccccc2)o1
    -1	-5	-1	-14	i	3	1	11
O=C(Cc1ccc(NC(=O)C2CCCN(C(=O)C3CCC3)C2)cc1)Nc1cccc(C(=O)N2CCCCC2)c1 (stereo unspecified)
    ·	·	3	0	·	·	6	20
COc1cccc(-c2cc(-c3cccnc3)nc(N)c2C#N)c1
    4	-4	2	0	i	-4	-6	13
C=CCn1c(NC(=O)c2ccco2)nc2ccccc21
    -4	3	0	4	·	-13	-8	-6
Cc1c(C)c(C)c(CO/N=C/c2cccs2)c(C)c1C
    -12	·	-3	0	i	-4	·	18
CCn1c(SCC(=O)N2CCOCC2)nc2oc3c(Cl)cc(Cl)cc3c(=O)c2c1=O
    10	40	·	·	i	16	·	·
CC(C)(C)c1ccc(CCC(CC(=O)O)CC(=O)O)cc1
    -9	-9	-2	4	i	-4	5	-2

Three compounds already listed, arranged by the value under Env fusion inh, ascending:
mol	MT1-MMP act inh	MT1-MMP act inh RFP	Rce1 inhib	Yeast UUG start	Env fusion inh
CCOC(=O)C(=Nc1ccccc1)NO	1	7	i	-5	-19
CCn1cc(/C=N\NC(=O)c2cc(-c3ccccc3OC)nc3ccccc23)c(C)n1	-3	-2	i	·	-13
CCCCC(=O)N(C)c1c(C)nc2ccc(C(=O)N3CCNC(=O)C3)cn12	3	9	·	4	6

(continued)
Sequence of screens: eIF4H inh	CSC inhib	MT1-MMP act inh	MT1-MMP act inh RFP	Rce1 inhib	PABP polyA inh	Yeast UUG start	Env fusion inh
CC(C)NC(=O)N[C@H]1C=C[C@H](CC(=O)NCc2ccc(Oc3ccccc3)cc2)O[C@@H]1CO
    ·	·	4	-8	·	·	-8	-7[16.7 µM]
O=[N+]([O-])c1ccc(-c2nc(NCc3ccccc3)c3ccccc3n2)cc1
    0	21	-1	-7	i	1	·	-1
COc1nn(CC(=O)N2N=C(C(F)F)CC2(O)C(F)F)cc1[N+](=O)[O-] (stereo unspecified)
    -1	-12	1	2	i	-9	-29	-44
Cc1ccc(C2OC3=C(C(=O)CC(C)(C)C3)C(N)=C2C#N)o1 (stereo unspecified)
    -11	3	-6	0	i	1	·	14
O=C(c1sc2ccccc2c1Cl)N(Cc1cccs1)C1CCS(=O)(=O)C1 (stereo unspecified)
    -2	-13	4	-3	i	-2	-8	-12
CCCN1CCC(=O)N([C@H](CSc2ccccc2)CC(C)C)CC1
    -6	6	1	3	i	-2	-14	-22
COc1ccccc1N1CCN(C2CCN(S(=O)(=O)c3ccc4ccccc4c3)CC2)CC1
    14	47	13	-8	i	8	-12	-18
COC(=O)c1[nH]c2cc(OC)ccc2c1NC(=O)CCN1CCN(c2cccc(C)c2C)CC1
    -5	-5	8	-7	i	6	-10	·
Cc1ccc(S(=O)(=O)NCc2cn3ccccc3n2)c(C)c1
    -8	-6	0	9	i	-6	1	-9
COc1ccc(-c2cc(C(F)(F)F)nc(SCC(=O)NCCN3CCOCC3)n2)cc1OC
    5	6	-1	6	i	-7	-8	·
C=CCn1c(SCC(=O)NCCc2ccccc2)nnc1C(C)NC(=O)c1cccs1 (stereo unspecified)
    3	-9	-1	-2	i	-2	29	-62
Cc1cccc(C(C(=O)NC2CCCCC2)N(Cc2cccnc2)C(=O)c2csnn2)c1 (stereo unspecified)
    -10	-15	-3	1	i	-2	-15	2
O=C(Nc1ccccc1F)c1cccc(C(=O)Nc2ccccc2F)c1
    1	-1	6	0	i	0	·	-2
FC(F)(F)c1cc(-c2ccccc2)nc(NC2CCCC2)n1
    -2	48	-11	-11	i	-6	-7	-107
COc1ccc(N2CC(O)=C(c3n(C)c4ccccc4[n+]3C)C2=N)cc1
    -2	-10	-1	1	i	-6	3	·

Given as labelled records: three of the compounds above.
Structure: Cc1ccc(C2OC3=C(C(=O)CC(C)(C)C3)C(N)=C2C#N)o1 (stereo unspecified)
  eIF4H inh: -11
  CSC inhib: 3
  MT1-MMP act inh: -6
  MT1-MMP act inh RFP: 0
  Rce1 inhib: i
  PABP polyA inh: 1
  Yeast UUG start: ·
  Env fusion inh: 14
Structure: Fc1ccccc1NC(=S)NCCc1ccc(Cl)cc1
  eIF4H inh: -9
  CSC inhib: -4
  MT1-MMP act inh: -6
  MT1-MMP act inh RFP: 0
  Rce1 inhib: i
  PABP polyA inh: 5
  Yeast UUG start: -16
  Env fusion inh: ·
Structure: CC(C)NC(=O)N[C@H]1C=C[C@H](CC(=O)NCc2ccc(Oc3ccccc3)cc2)O[C@@H]1CO
  eIF4H inh: ·
  CSC inhib: ·
  MT1-MMP act inh: 4
  MT1-MMP act inh RFP: -8
  Rce1 inhib: ·
  PABP polyA inh: ·
  Yeast UUG start: -8
  Env fusion inh: -7[16.7 µM]

Additional results.
Sequence of screens: eIF4H inh	CSC inhib	MT1-MMP act inh	MT1-MMP act inh RFP	Rce1 inhib	PABP polyA inh	Yeast UUG start	Env fusion inh
Brc1ccc(-c2nnc3sc(CN4CCC5(CC4)OCCO5)cn23)cc1
    -9	16	10	1	i	-4	2	·
C/C(=N\NC(=O)c1ccn(C)n1)c1ccc(NC(=O)C2CCC2)cc1
    -2	24	3	6	i	-5	-8	-6
CCCNC(=O)N1C2=NC(C(=O)OC)=C(C(=O)OC)[C@@H]3N(Cc4ccccc4)c4ccccc4[C@]23C[C@H]1CO
    ·	0	3	-2	i	·	-16	0
COc1ccc(C(C#N)c2cnccn2)cc1OC (stereo unspecified)
    ·	9	0	-2	i	·	-10	7
Nc1ccn(CC(=O)NCc2ccc3c(c2)OCO3)c(=O)n1
    ·	1	3	3	·	·	-7	-4
O=C(CN1C(=O)COc2ccccc21)N(Cc1ccccc1)Cc1ccccn1
    -3	-10	-6	-4	i	-3	2	-3
CN1CCN2c3ccccc3Cc3ccccc3C2C1 (stereo unspecified)
    21	-7	-1	-2	i	5	-12	7
O=C(C1CCC1)N1CCN(S(=O)(=O)c2ccc(F)cc2)CC1
    ·	6	-5	-2	i	·	·	-7

Some values from above.
In eIF4H inh, `COc1ccccc1NS(=O)(=O)c1ccc(C)c(NC(=O)c2ccc(S(=O)(=O)N3CCCCCC3)cc2)c1` is entered as 13
In MT1-MMP act inh, `COc1ccc(NC(=S)NC(NC(=O)CCl)C(Cl)(Cl)Cl)c([N+](=O)[O-])c1` (stereo unspecified) is entered as -4
In Yeast UUG start, `CCOC(=O)C(=Nc1ccccc1)NO` is entered as -5
In MT1-MMP act inh, `CCCCC(=O)N(C)c1c(C)nc2ccc(C(=O)N3CCNC(=O)C3)cn12` is entered as 3

Rows were taken by chance; about 2.9% have a hit in one of these screens.
